Screening data (PubChem)
GAA850 FXN act = activators of GAA850 frataxin (FXN) promoter | HEK293 lucGAA850 FXN promoter luciferase reporter, 24 h; percent of 10 µM SAHA response | activation, % at 6 µM | actives 0.56% (n = 360,000);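 active = activation above the average of all compounds screened plus 3 SD, cutoff fixed separately per campaign, cut at about 7.5% in these data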;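 note: 0% = DMSO wells and 100% = 10 µM SAHA wells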
NPR1 activator = GC-A (human) enzyme activation; P16066; HEK293 GC-A cells, cGMP TR-FRET, EC30 ANP; 0% at EC30 ANP, 100% saturating ANP; activation, % at 10 µM; actives 0.14% (n = 370,000); AID 1671463; in the data active = activation above about 40%
DAX1 inh-1 = NR0B1 (DAX1) inhibition; HEK293 Gal4-DAX1 luciferase reporter, luminescence; inhibition, % at 6.75 µM; AID 504766; actives 0.99% (n = 340,000); P51843;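 active = inhibition above the mean over all tested compounds plus 3 SD, cut at about 4.2% in these data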;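 note: 0% = DAX1-transfected cells with DMSO and 100% = empty-vector control cells with DMSO; inhibition shows as a rise in luminescence from relieved DAX1 repression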
hcDAF12 agonist = activates DAF-12 receptor from parasite H. contortus; HEK293 hcDAF-12 lit1-tk-luc reporter, luminescence; 0% DMSO, 100% Δ7-dafachronic acid; activation, % at 6.8 µM; actives 1.4% (n = 370,000);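 active = activation above the mean of all tested compounds plus 3 SD, cut at about 5.5% in these data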;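 note: 100% = response to 3 µM Δ7-dafachronic acid high control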
SMARCA2 act = activators of SMARCA2 function; actives 1% (n = 370,000); activation, % at 9.1 µM; MG213 cells, MMTV-luciferase reporter, dexamethasone, overnight; in the data active = activation above about 7.8%;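 note: 0% = vehicle wells and 100% = reference activator wells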
ssDAF-12 act = activators of S. stercoralis DAF-12 nuclear receptor | AID 652126 | activation, % at 6.8 µM | HEK293 ssDAF-12/GRIP1 lit1-tk-luc reporter, luminescence; % of 3 µM dafachronic acid response | actives 1% (n = 370,000);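 active = activation above the mean over all tested compounds plus 3 SD, cut at about 0.9% in these data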;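 note: 0% = DMSO-only wells and 100% = 3 µM delta7-dafachronic acid wells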
GC-B act = GC-B (human) receptor activation; P20594; HEK293-GC-B cells, CNP EC30, cGMP TR-FRET; 0% at EC30 CNP, 100% saturating CNP; activation, % at 10 µM; actives 0.11% (n = 370,000); AID 1920062;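 active = activation at 10 µM reaching about 35% in either raw or pattern-adjusted values, limit read from the data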
Target sequence (P20594 whole entry, looked up): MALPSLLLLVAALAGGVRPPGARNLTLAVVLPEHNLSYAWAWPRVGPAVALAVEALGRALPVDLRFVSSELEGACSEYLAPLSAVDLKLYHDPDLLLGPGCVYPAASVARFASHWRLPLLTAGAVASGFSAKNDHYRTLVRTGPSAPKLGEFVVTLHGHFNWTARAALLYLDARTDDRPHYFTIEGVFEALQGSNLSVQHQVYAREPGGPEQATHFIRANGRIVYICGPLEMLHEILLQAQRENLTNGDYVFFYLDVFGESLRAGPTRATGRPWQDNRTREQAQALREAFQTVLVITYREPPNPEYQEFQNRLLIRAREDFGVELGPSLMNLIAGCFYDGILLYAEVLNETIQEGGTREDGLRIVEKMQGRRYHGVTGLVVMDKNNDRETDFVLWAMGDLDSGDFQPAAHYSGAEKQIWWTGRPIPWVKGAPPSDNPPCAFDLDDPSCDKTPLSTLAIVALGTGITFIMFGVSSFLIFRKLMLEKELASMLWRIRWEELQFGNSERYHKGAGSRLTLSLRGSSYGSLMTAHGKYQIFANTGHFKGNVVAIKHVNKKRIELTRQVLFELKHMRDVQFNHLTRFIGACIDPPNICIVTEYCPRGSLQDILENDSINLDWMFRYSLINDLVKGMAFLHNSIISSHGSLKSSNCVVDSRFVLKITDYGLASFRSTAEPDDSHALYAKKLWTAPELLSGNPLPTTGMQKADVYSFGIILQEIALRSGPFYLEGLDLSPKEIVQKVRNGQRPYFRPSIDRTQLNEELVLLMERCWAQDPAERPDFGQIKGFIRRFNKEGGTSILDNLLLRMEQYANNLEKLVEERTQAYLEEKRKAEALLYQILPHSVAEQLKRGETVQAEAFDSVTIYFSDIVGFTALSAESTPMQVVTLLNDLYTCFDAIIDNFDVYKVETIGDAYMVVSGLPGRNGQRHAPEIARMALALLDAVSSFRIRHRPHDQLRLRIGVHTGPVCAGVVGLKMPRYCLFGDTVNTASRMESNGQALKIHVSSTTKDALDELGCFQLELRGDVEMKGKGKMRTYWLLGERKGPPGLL
DAX1 inh-2 = DAX1 (NR0B1) inhibition, primary screen; AID 652010; HEK293T StAR-luciferase reporter, SF-1/DAX-1 repression relief; inhibition, % at 6.8 µM; actives 1.1% (n = 370,000);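 active = inhibition above the mean over all tested compounds plus 3 SD, cut at about 3.6% in these data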;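 note: 0% = DAX-1 cells with DMSO and 100% = cells lacking DAX-1 with DMSO; higher inhibition means more luminescence from relief of DAX-1 repression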
hgDAF12 agonist = hgDAF-12 agonism, primary luciferase screen; HEK293 GAL4-hgDAF12 UAS-luciferase reporter, agonist luminescence; normalized to butyrate control; activation, % at 6.8 µM; actives 1.8% (n = 370,000); AID 687014;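 active = activation above a cutoff set at the mean of all screened compounds plus 3 SD, cut at about 10% in these data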;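 note: 0% = DMSO wells and 100% = sodium butyrate wells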
HGIII-sPLA2 inh = Blocks human group III sPLA2 activity; QFRET BODIPY PC-A2 liposome hydrolysis, fluorescence; inhibition, % at 12.2 µM; actives 0.56% (n = 370,000);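 active = inhibition above mean plus 3 SD of compounds lying within the high and low control bounds, cut at about 19% in these data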;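 note: 0% = median of test compound wells and 100% = no enzyme DMSO wells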
Starred values were filed as active, the others as inactive.

Screening O=C(CSc1nc(-c2cccs2)cc(C(F)(F)F)n1)NCCCn1ccnc1 returned GAA850 FXN act 3.3, NPR1 activator -2, DAX1 inh-1 -1.2, hcDAF12 agonist 0.8, SMARCA2 act -1, ssDAF-12 act -1.4, GC-B act 0, DAX1 inh-2 0.3, hgDAF12 agonist -1.0 and HGIII-sPLA2 inh -7.
COC(=O)c1[nH]c2ccc(C)cc2c1NC(=O)CN1CCN(Cc2ccccc2)CC1 was read as GAA850 FXN act 0.5, NPR1 activator 13, DAX1 inh-1 1.6, hcDAF12 agonist 0.2, SMARCA2 act -4, ssDAF-12 act -1.1, GC-B act 16, DAX1 inh-2 -1.3, hgDAF12 agonist -4.3 and HGIII-sPLA2 inh -19.
O=C(Cn1cccc1)NCc1cccs1 was read as GAA850 FXN act -1.0, NPR1 activator -2, DAX1 inh-1 -0.1, hcDAF12 agonist 0.8, SMARCA2 act -1, ssDAF-12 act -1.4, GC-B act 7, DAX1 inh-2 0.1, hgDAF12 agonist -0.2 and HGIII-sPLA2 inh 4.
For Cc1cccc(NC(=O)c2cc(-c3ccc(C)c(C)c3O)n[nH]2)c1 the results were GAA850 FXN act 5.8, NPR1 activator 10, DAX1 inh-1 1.8, hcDAF12 agonist -1.6, SMARCA2 act 2, ssDAF-12 act -0.2, GC-B act 3, DAX1 inh-2 0.8, hgDAF12 agonist 5.8 and HGIII-sPLA2 inh -28.
Screening COC(=O)c1ccc(CNC(=O)CSc2nc3sc(C)c(C)c3c(=O)n2C)o1 returned GAA850 FXN act 2.6, NPR1 activator 2, DAX1 inh-1 -0.4, hcDAF12 agonist 0.1, SMARCA2 act -3, ssDAF-12 act -1.9, GC-B act 3, DAX1 inh-2 0.3, hgDAF12 agonist 0.2 and HGIII-sPLA2 inh -5.
`COc1ccc(OCC(=O)NNC(=O)c2ccccn2)cc1` gave GAA850 FXN act 1.5, NPR1 activator 4, DAX1 inh-1 1.9, hcDAF12 agonist -1.8, SMARCA2 act -3, ssDAF-12 act -1.0, GC-B act 4, DAX1 inh-2 0.3, hgDAF12 agonist 0.3 and HGIII-sPLA2 inh 0.
`O=C1C2C3C=CC(CC3)C2C(=O)N1c1cccc(C(F)(F)F)c1` (configuration not stated) gave GAA850 FXN act 1.1, NPR1 activator 5, DAX1 inh-1 0.4, hcDAF12 agonist -0.8, SMARCA2 act -3, ssDAF-12 act -0.9, GC-B act 0, DAX1 inh-2 0.0, hgDAF12 agonist -1.1 and HGIII-sPLA2 inh 1.
O=C1OC(/C=C/c2ccccc2)=NC/1=C/C=C/c1ccccc1 was read as GAA850 FXN act 3.5, NPR1 activator -1, DAX1 inh-1 -1.1, hcDAF12 agonist 0.8, SMARCA2 act -4, ssDAF-12 act -1.2, GC-B act 2, DAX1 inh-2 0.4, hgDAF12 agonist 1.8 and HGIII-sPLA2 inh -41.
For CCCCCCCC[n+]1c(C)n(-c2ccccc2)c2ccc(NC(C)=O)cc21 the results were GAA850 FXN act -3.4, NPR1 activator 4, DAX1 inh-1 -0.8, hcDAF12 agonist 0.7, SMARCA2 act -5, ssDAF-12 act -1.6, GC-B act 1, DAX1 inh-2 -1.2, hgDAF12 agonist 1.2 and HGIII-sPLA2 inh -27.
`N#Cc1cc2c(nc1SCC(=O)O)CCCC2` gave GAA850 FXN act -1.6, NPR1 activator 0, DAX1 inh-1 3.0, hcDAF12 agonist 0.3, SMARCA2 act 0, ssDAF-12 act -0.5, GC-B act -4, DAX1 inh-2 0.0, hgDAF12 agonist 2.5 and HGIII-sPLA2 inh 4.
For CCN1CCCC1CNC(=O)c1ccc2c(c1)NC(=O)/C(=C\c1ccc(OC)c(OC)c1)S2 (configuration not stated) the results were GAA850 FXN act 7.7*, NPR1 activator 8, DAX1 inh-1 1.8, hcDAF12 agonist 0.4, SMARCA2 act 8.6*, ssDAF-12 act -0.9, GC-B act -5, DAX1 inh-2 1.3, hgDAF12 agonist 3.1 and HGIII-sPLA2 inh -16.
O=S(=O)(c1ccccc1)N1CCN(S(=O)(=O)c2ccccc2)c2ccccc21 was read as GAA850 FXN act 0.2, NPR1 activator -6, DAX1 inh-1 -0.2, hcDAF12 agonist -1.2, SMARCA2 act 1, ssDAF-12 act -1.3, GC-B act -6, DAX1 inh-2 -0.2, hgDAF12 agonist -1.1 and HGIII-sPLA2 inh 6.
Screening COCC(C)n1c(C)cc(C(=O)CSc2ncccn2)c1C (configuration not stated) returned GAA850 FXN act 2.2, NPR1 activator 3, DAX1 inh-1 -0.5, hcDAF12 agonist 0.8, SMARCA2 act 1, ssDAF-12 act -0.4, GC-B act 0, DAX1 inh-2 1.3, hgDAF12 agonist 5.8 and HGIII-sPLA2 inh 2.
O=C(Cn1cncn1)NCc1ccccc1Br was read as GAA850 FXN act 1.5, NPR1 activator 1, DAX1 inh-1 -0.3, hcDAF12 agonist 0.3, SMARCA2 act 1, ssDAF-12 act -1.1, GC-B act 0, DAX1 inh-2 1.4, hgDAF12 agonist 1.0 and HGIII-sPLA2 inh 4.
O=C(CCCn1c(=S)[nH]c2cc3c(cc2c1=O)OCO3)N1CCN(c2ccc(Cl)cc2)CC1 was read as GAA850 FXN act 1.8, NPR1 activator 2, DAX1 inh-1 -1.4, hcDAF12 agonist -0.3, SMARCA2 act -3, ssDAF-12 act -1.0, GC-B act -2, DAX1 inh-2 0.1, hgDAF12 agonist 2.0 and HGIII-sPLA2 inh 4.
Screening CS(=O)(=O)n1nc(-c2ccccc2)nc1N returned GAA850 FXN act 1.3, NPR1 activator 8, DAX1 inh-1 0.0, hcDAF12 agonist 0.9, SMARCA2 act -3, ssDAF-12 act -1.4, GC-B act -7, DAX1 inh-2 0.0, hgDAF12 agonist -1.0 and HGIII-sPLA2 inh 3.
Screening Cn1c(SCC(=O)Nc2ccc(C(=O)O)cc2)nc2scc(-c3ccccc3Cl)c2c1=O returned GAA850 FXN act 1.5, NPR1 activator 2, DAX1 inh-1 1.4, hcDAF12 agonist -1.7, SMARCA2 act 0, ssDAF-12 act -0.9, GC-B act -1, DAX1 inh-2 0.9, hgDAF12 agonist -0.7 and HGIII-sPLA2 inh -14.
`CN(C)C(CNc1nnnn1-c1ccccc1)c1ccco1` (configuration not stated) gave GAA850 FXN act 0.3, NPR1 activator 4, DAX1 inh-1 0.3, hcDAF12 agonist -0.1, SMARCA2 act -2, ssDAF-12 act -1.4, GC-B act 6, DAX1 inh-2 -0.3, hgDAF12 agonist 1.4 and HGIII-sPLA2 inh 2.
NC(=O)CC(NC(=O)Cc1ccc(Br)cc1)c1ccc(NCCc2ccc(Cl)cc2)c([N+](=O)[O-])c1 (configuration not stated) was read as GAA850 FXN act -4.9, NPR1 activator -1, DAX1 inh-1 0.7, hcDAF12 agonist -0.3, SMARCA2 act 2, ssDAF-12 act -1.5, GC-B act -5, DAX1 inh-2 -0.4, hgDAF12 agonist -0.2 and HGIII-sPLA2 inh 3.
For Cn1nc(C(=O)NNC(=O)c2ccc(Cl)cc2)ccc1=O the results were GAA850 FXN act -0.1, NPR1 activator 0, DAX1 inh-1 3.5, hcDAF12 agonist -1.0, SMARCA2 act -3, ssDAF-12 act -1.0, GC-B act -1, DAX1 inh-2 3.2, hgDAF12 agonist 6.1 and HGIII-sPLA2 inh -6.
COc1ccccc1CN1C[C@@H]2C[C@@H](c3ccc(C)c(C)c3)N3CCC[C@@]23C1=O was read as GAA850 FXN act 1.1, NPR1 activator -3, DAX1 inh-1 -1.2, hcDAF12 agonist -0.9, SMARCA2 act -4, ssDAF-12 act -1.0, GC-B act -6, DAX1 inh-2 -0.7, hgDAF12 agonist -0.3 and HGIII-sPLA2 inh 3.
For O=C(O)COc1ccc(/C=C/c2nc3ccc([N+](=O)[O-])cc3s2)cc1 the results were GAA850 FXN act -0.1, NPR1 activator 5, DAX1 inh-1 0.2, hcDAF12 agonist -0.9, SMARCA2 act 0, ssDAF-12 act -1.5, GC-B act 0, DAX1 inh-2 0.7, hgDAF12 agonist 1.7 and HGIII-sPLA2 inh 2.
For Fc1ccc(N2CCN(Cc3ccccn3)CC2)cc1 the results were GAA850 FXN act 0.1, NPR1 activator 3, DAX1 inh-1 3.0, hcDAF12 agonist 1.4, SMARCA2 act 0, ssDAF-12 act -1.3, GC-B act 2, DAX1 inh-2 0.1, hgDAF12 agonist -3.4 and HGIII-sPLA2 inh 7.
`COc1cc(CN2CCc3ccccc3C2)ccc1O` gave GAA850 FXN act -1.2, NPR1 activator -1, DAX1 inh-1 -0.5, hcDAF12 agonist 0.2, SMARCA2 act -3, ssDAF-12 act -2.3, GC-B act 4, DAX1 inh-2 0.2, hgDAF12 agonist -7.2 and HGIII-sPLA2 inh -2.
`CC(=O)c1sc(NC(=O)C2CCN(C(=O)c3ccc(F)cc3)CC2)nc1-c1ccccc1` gave GAA850 FXN act 0.4, NPR1 activator -9, DAX1 inh-1 -1.1, hcDAF12 agonist -0.2, SMARCA2 act -1, ssDAF-12 act -1.2, GC-B act -2, DAX1 inh-2 0.1, hgDAF12 agonist -2.8 and HGIII-sPLA2 inh -34.
`Cc1ccc(S(=O)(=O)CCC(=O)Nc2cccc(S(=O)(=O)N3CCCCCC3)c2)cc1` gave GAA850 FXN act 0.7, NPR1 activator -1, DAX1 inh-1 -0.6, hcDAF12 agonist -2.1, SMARCA2 act -5, ssDAF-12 act -1.6, GC-B act 1, DAX1 inh-2 -2.5, hgDAF12 agonist -3.4 and HGIII-sPLA2 inh -21.
For Cc1ccccc1NC(=O)CCC(=O)N/N=C/c1cccnc1 the results were GAA850 FXN act 0.5, NPR1 activator -2, DAX1 inh-1 0.6, hcDAF12 agonist 3.1, SMARCA2 act 0, ssDAF-12 act -1.2, GC-B act 2, DAX1 inh-2 0.7, hgDAF12 agonist 4.0 and HGIII-sPLA2 inh 1.
For Cc1noc(C(=O)Nc2cccc(O)c2)c1Cl the results were GAA850 FXN act -0.5, NPR1 activator -3, DAX1 inh-1 -0.2, hcDAF12 agonist 5.6*, SMARCA2 act -1, ssDAF-12 act 0.5, GC-B act -3, DAX1 inh-2 1.1, hgDAF12 agonist 3.6 and HGIII-sPLA2 inh 3.
For CC1C(=O)N2CCCc3cc(S(=O)(=O)NCc4ccccc4Cl)cc1c32 (configuration not stated) the results were GAA850 FXN act 1.5, NPR1 activator -3, DAX1 inh-1 0.2, hcDAF12 agonist -0.2, SMARCA2 act -3, ssDAF-12 act -0.9, GC-B act 0, DAX1 inh-2 -0.2, hgDAF12 agonist 3.5 and HGIII-sPLA2 inh -48.
For O=C(CSc1n[nH]c(-c2ccccc2O)n1)N1CCOCC1 the results were GAA850 FXN act 0.6, NPR1 activator -2, DAX1 inh-1 0.6, hcDAF12 agonist 0.9, SMARCA2 act 1, ssDAF-12 act -1.7, GC-B act -1, DAX1 inh-2 1.0, hgDAF12 agonist 6.1 and HGIII-sPLA2 inh -7.
`CCCC1CC(C(=O)NC(C(C)Cl)C2OC(SC)C(O)C(O)C2O)N(C)C1` (configuration not stated) gave GAA850 FXN act 0.2, NPR1 activator 2, DAX1 inh-1 -0.6, hcDAF12 agonist 0.1, SMARCA2 act -7, ssDAF-12 act -1.4, GC-B act -2, DAX1 inh-2 -0.2, hgDAF12 agonist -1.5 and HGIII-sPLA2 inh 9.
Screening CC(C)Sc1nc(O)c(Cc2ccccc2)c(=O)[nH]1 returned GAA850 FXN act -1.4, NPR1 activator 2, DAX1 inh-1 1.1, hcDAF12 agonist 0.6, SMARCA2 act -3, ssDAF-12 act -1.3, GC-B act 1, DAX1 inh-2 -0.8, hgDAF12 agonist 3.3 and HGIII-sPLA2 inh 0.

Not all compounds are listed; count on the stated rates, not on these rows.
